Assay outcomes as filed in PubChem.
Mtb growth – Mycobacterium tuberculosis H37Rv growth inhibition, cell based, confirmatory dose response (AID 1949); most inactive calls were filed without a number and no value below 0 was filed; inhibition, % at 10 µg/mL, or IC50 in µg/mL where a hit was titrated; 100,000 compounds, 1.6% hits;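 active = confirmed in a dose series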;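 note: bacteria grown 7 days with compound before Alamar blue readout; 0% = untreated bacteria and 100% = reference antibiotic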
The depositor's hits bear a star; i = inactive. The list is partial; count on the stated rates, not on these rows.

SMILES | Mtb growth
COc1ccc(NC(=O)COc2ccc3c(C)c(C)c(=O)oc3c2)cc1Cl | i
CC(=O)c1cnc(Nc2nc(C)c3cc(C)c(C)cc3n2)nc1C | 1%
Cc1ccccc1C(=O)Nc1sc2c(c1C(=O)NCC1CCCO1)CCC2 (stereo not drawn) | i
Cc1cc2oc(C(=O)NCc3ccc4c(c3)OCO4)c(C)c2cc1C | i
CS(=O)(=O)N1CCN(C(=O)CCC2CCCC2)CC1 | 2%
CCOC(=O)c1cc(C)n(CCc2ccccc2)c1C | 2%
O=C(CN1C(=O)c2ccccc2C1=O)OCC(=O)N1c2ccccc2Sc2ccccc21 | i
CCCN1CCN(CCCNC(=S)Nc2ccc(F)cc2)CC1 | i
COc1ccc(C(=O)Oc2cc3c4c(c2)C(C)=CC(C)(C)N4C(=O)C3=O)cc1OC | 26%
CCOC(=O)c1c(NC(=O)Cc2ccc(Cl)cc2)sc(C(=O)Nc2ccccc2OC)c1C | 0%
Cc1ccc(S(=O)(=O)N(CC(=O)N2CCc3ccccc3C2)c2ccccc2F)cc1 | i
N/C(=N\OC(=O)c1cc(Br)ccc1Cl)c1ccncc1 | 26%
Cc1ccc(Cl)cc1N(CC(=O)NCCSC1CCCCC1)S(C)(=O)=O | i
O=C(c1ccc(NCc2ccco2)c([N+](=O)[O-])c1)N1CCOCC1 | i
C=CCNC(=O)c1ccc(Cl)cc1[N+](=O)[O-] | i
CCc1cccc(OCCN2CCOCC2)c1 | i
O=c1cc(-c2ccccc2)c2ccc(OS(=O)(=O)c3ccccc3)cc2o1 | 4%
Cc1ccc(CCC(=O)Nc2cc(Cl)ccc2Cl)o1 | i
CC(=O)Oc1ccc(N(C(C)=O)S(=O)(=O)c2cccc3ccccc23)c2ccccc12 | i
CCOC(=O)C1=C(C)N=c2s/c(=C\c3ccc(C)o3)c(=O)n2C1c1ccccc1Cl (stereo not drawn) | 0%
Cc1cc(Br)c(OCC(=O)N=Nc2c(O)[nH]c3ccc(Br)cc23)c(Br)c1 | i
CC(CCc1ccccc1)NC(=O)c1ccccc1 (stereo not drawn) | i
N#Cc1ccc(NC(=O)C(=O)NCc2ccccc2Cl)cc1 | i
Cn1nc(-c2ccc(C(=O)O)cc2)c2ccccc2c1=O | i

Part of the list above, with tabs.
SMILES	Mtb growth
Cc1ccc(S(=O)(=O)N(CC(=O)N2CCc3ccccc3C2)c2ccccc2F)cc1	i
N/C(=N\OC(=O)c1cc(Br)ccc1Cl)c1ccncc1	26%
Cc1ccc(Cl)cc1N(CC(=O)NCCSC1CCCCC1)S(C)(=O)=O	i
O=C(c1ccc(NCc2ccco2)c([N+](=O)[O-])c1)N1CCOCC1	i
C=CCNC(=O)c1ccc(Cl)cc1[N+](=O)[O-]	i

More compounds.
SMILES | Mtb growth
COc1ccc(-n2c(SCCOc3ccc(C)cc3)nnc2-c2ccccc2)cc1 | i
Cc1cc(OCC(=O)Nc2ccc(S(N)(=O)=O)cc2)ccc1Br | i
NC(=O)C1CCN(C(=O)CSc2nc3ccccc3[nH]2)CC1 | i
O=C(NC1C2CC3CC(C2)CC1C3)c1sc2ccccc2c1Cl (stereo not drawn) | 32%
CCSc1nnc(NC(=O)c2sc3cc(C)ccc3c2Cl)s1 | i
Cc1cc(C)c(NC(=O)c2ccc(CN(c3ccccc3)S(C)(=O)=O)cc2)c(C)c1 | i
CCOC(=O)C(CC)Oc1ccc2c(C)c(Cc3ccccc3)c(=O)oc2c1C (stereo not drawn) | 1%
CN1CCC(OC(=O)c2ccc(Br)cc2)CC1 | i
N#CC1=C(SCC(=O)Nc2ccc(Oc3ccccc3)cc2)NC(=O)CC1c1ccc(F)cc1 (stereo not drawn) | i
CCn1c(NCCO)nc2ccccc21 | i
O=C(CSc1nnnn1-c1cccc(O)c1)NC1CC1 | i
O=C(NCC1CCCO1)c1ccccc1NC(=O)c1cccc2ccccc12 (stereo not drawn) | i
Cc1cc(=O)[nH]c2c1c(C)nn2C1CCCC1 | 3%
COC(=O)c1c(NC(=S)Nc2ccn(C)n2)sc2c1CCCCC2 | i
COC(=O)c1ccc(OCCCCN(C)Cc2ccccc2)cc1 | i
CC(C)c1ccc(N(CC(=O)Nc2cccc(Cl)c2Cl)S(C)(=O)=O)cc1 | i
Clc1c(OCCCN2CCNCC2)ccc2ccccc12 | i
O=C(CCc1ccccc1)NC(=S)Nc1ccc(N2CCCCC2)cc1 | 0.27µg/mL*
COCC(=O)Nc1ccccc1C(=O)Nc1ccc2c(c1)OCO2 | i
CCOC(=O)N1CCN(C(=O)COc2cc(C)c(Br)c(C)c2)CC1 | 2%
COC(=O)c1c(NC(=O)c2cc(-c3ccc(C)cc3)nc3ccccc23)sc(C(=O)N(C)C)c1C | i
CC1=C(C(=O)Nc2ccccc2)C(c2ccc(Cl)cc2Cl)n2ncnc2N1 (stereo not drawn) | 1%
COc1ccc([N+](=O)[O-])cc1NC(=O)C1CC(=O)N=C(N)S1 (stereo not drawn) | 0%
CCCC1CCc2c(sc(NC(=O)OCC)c2C(N)=O)C1 (stereo not drawn) | 3%
CCOC(=O)c1c(NC(=O)C2CCCCC2)sc(C(C)=O)c1C | 2%
NC(=O)CSc1nc2ccccc2c(=O)n1-c1ccc(Cl)cc1 | i
COc1ccc(OCCCC(=O)Nc2cc(OC)ccc2OC)cc1 | i
COc1ccc(-c2cc(-c3ccccc3)nc3sc(C(C)=O)c(N)c23)cc1 | i
CCC(C)c1ccc(NC(=S)NN2CCN(C)CC2)cc1 (stereo not drawn) | i
COc1cccc(C(=O)COC(=O)c2cccc(NC(=O)c3ccccc3)c2)c1 | i
CCN(CC)CC(O)COC1CCC(C(C)(C)C)CC1 (stereo not drawn) | i
CN(C)C(=S)c1cc(C(C)(C)C)c(O)c(C(C)(C)C)c1 | i
O=C(CSc1ccc(F)cc1)Nc1ccc(N2CCOCC2)c(Cl)c1 | i
CCCn1c2ccccc2c2nnc(SCC(=O)Nc3ccccc3OC)nc21 | 2%
CC(=O)n1cc(C=C2C(=O)NC(=O)NC2=O)c2ccccc21 | i
Cc1cc(C)nc(NC(=O)c2ccccc2F)c1 | i
CC(NS(=O)(=O)c1ccccc1)C(N)=O (stereo not drawn) | i
COC(=O)c1ccccc1NC(=O)NCCC1=CCCCC1 | i
NC(=O)c1ccccc1NS(=O)(=O)c1ccc2c(c1)OCCO2 | 5%
Cc1ccc(NC(=O)C(=O)NCCN2CCN(S(=O)(=O)c3ccc(F)cc3)CC2)cc1C | i
NC(=O)C1(c2ccccc2)CCOCC1 | i
CCOc1ccc(-n2c(SCC(=O)Nc3cccc(C)c3)nnc2-c2ccncc2)cc1 | i
Cc1cc(OCC(=O)Nn2cnnc2)c(C)cc1Br | i
COc1cccc(C(=O)NC(=S)Nc2cccnc2)c1 | i
CCOC(=O)C1CCN(C(=O)C2CCN(S(=O)(=O)c3ccc(Br)cc3)CC2)CC1 | i
CC1(C)CC(NC(=O)CCCN2C(=O)c3ccccc3C2=O)CC(C)(C)N1 | i
Cn1c(SCC(=O)Nc2cccc(O)c2)nnc1-c1ccco1 | i
CCOC(=O)c1c(C)n(CCOc2ccccc2Cl)c2ccc(O)cc12 | i

5 entries from above, as a markdown table:
| mol | Mtb growth |
| --- | --- |
| COc1cccc(C(=O)NC(=S)Nc2cccnc2)c1 | i |
| CCOC(=O)C1CCN(C(=O)C2CCN(S(=O)(=O)c3ccc(Br)cc3)CC2)CC1 | i |
| CC1(C)CC(NC(=O)CCCN2C(=O)c3ccccc3C2=O)CC(C)(C)N1 | i |
| Cn1c(SCC(=O)Nc2cccc(O)c2)nnc1-c1ccco1 | i |
| CCOC(=O)c1c(C)n(CCOc2ccccc2Cl)c2ccc(O)cc12 | i |

Further records follow.
SMILES | Mtb growth
Cc1ccn2c(NC(=O)c3ccc(Br)cc3)c(-c3ccccc3)nc2c1 | i
O=[N+]([O-])c1ccc(N2CCN(C(=S)NCc3ccc(Cl)cc3)CC2)cc1 | 2.6µg/mL*
COc1ccc(Br)cc1C(=O)Nc1nc2ccc(NC(C)=O)cc2s1 | 8%
COc1cccc2c(NCCCN3CCCC3=O)nc(C(Cl)(Cl)Cl)nc12 | i
O=C(Cn1cc(Br)cn1)c1ccccc1 | 2%
COc1ccc(Cl)cc1NC(=O)NN1CCN(C)CC1 | i
CC1CCc2sc3ncnc(N4CCN(Cc5ccc(Cl)cc5)CC4)c3c2C1 (stereo not drawn) | 49%
N#Cc1ccc(-c2nc(-c3ccccc3)c(-c3cccs3)[nH]2)cc1 | 5.9µg/mL*
CSc1nnc(-c2cccs2)n1-c1ccccc1 | i
CCOC(=O)C1=CN(C)C=C(C(=O)OCC)C1c1ccc(OCC)c(OC)c1 | i
COc1ccc2ccc(=O)oc2c1CC=C(C)C | i
Cc1ccc(N2CCN(C(=O)c3cccs3)CC2)cc1C | i
CCOC(=O)CSc1nnc(-c2ccccc2)n1-c1ccc(C)c(C)c1 | 9%
O=C(Nc1ccccc1C(=O)NCc1ccccc1)c1ccc([N+](=O)[O-])cc1 | i
CC(CCc1ccccc1)NC(=O)c1ccccc1C(=O)NC(C)CCc1ccccc1 (stereo not drawn) | i
Cc1ccc(S(=O)(=O)N2C(=O)CCC2C(=O)Nc2cc([N+](=O)[O-])ccc2C)cc1 (stereo not drawn) | i
CC(=O)c1ccc(N2CCN(C(=S)Nc3cccc(F)c3)CC2)cc1 | i
CCc1cccc(C)c1Nc1c([N+](=O)[O-])c(=O)oc2ccccc12 | i
Cc1cc(=O)[nH]c(/N=C(/NC(=O)c2ccccc2)Nc2cccc(Cl)c2C)n1 | i
COc1ccc(C(=O)NC(=S)NC(C)(C)C)cc1I | 1%
CC1(C)CC(=O)C2=C(C1)N(CCc1ccccc1)C(=O)NC2(C(F)(F)F)C(F)(F)F | i
CC1=C(C(=O)Nc2ccc(F)cc2)C(c2ccco2)C(C#N)=C(SCC(=O)NC(C)(C)C)N1 (stereo not drawn) | i
NC(=O)C1CCN(C(=O)CN(C2CCCCC2)S(=O)(=O)c2ccc(Br)cc2)CC1 | i
O=C(Nc1ccccc1C(F)(F)F)c1sc2cccc(Cl)c2c1Cl | i
CC(=O)N(Cc1ccccc1C)c1cccc(C)c1C | 5%
Cc1c(CCC(=O)O)c(=O)oc2cc(OCc3cccc(Cl)c3)ccc12 | i
CC(NC(=O)Nc1ccccc1C(F)(F)F)c1ccncc1 (stereo not drawn) | i
O=C1c2cccc3cccc(c23)C(=O)N1CCN1CCN(S(=O)(=O)c2cccs2)CC1 | i
COc1cccc(OCCNC(=O)c2ccccc2F)c1 | i
COC(=O)c1cc(-c2ccc(C)cc2C)nc2ccccc12 | 2%
CCOC(=O)C1CCN(S(=O)(=O)c2ccc3c4c(cccc24)C(=O)N3)CC1 | i
Cc1ccccc1NC(=O)NC12CC3CC(CC(C3)C1)C2 | i
O=c1c2cc(Cl)cc(Cl)c2nc(CN2CCCCC2)n1-c1ccccc1F | 2%
CCC(C(=O)Nc1cccc(C(=O)O)c1C)c1ccccc1 (stereo not drawn) | i
O=C(c1ccc2c(c1)OCCO2)N1CCN(c2ccccn2)CC1 | i
COC(=O)c1ccccc1NC(=O)CN(c1cc(Cl)ccc1OC)S(C)(=O)=O | i

Sorted by number of heavy atoms (smallest number first): some entries from above
SMILES | Mtb growth
O=C(CSc1nnnn1-c1cccc(O)c1)NC1CC1 | i
CCOC(=O)CSc1nnc(-c2ccccc2)n1-c1ccc(C)c(C)c1 | 9%
Cc1ccc(S(=O)(=O)N2C(=O)CCC2C(=O)Nc2cc([N+](=O)[O-])ccc2C)cc1 (stereo not drawn) | i
COc1ccc(-n2c(SCCOc3ccc(C)cc3)nnc2-c2ccccc2)cc1 | i

The list goes on.
SMILES | Mtb growth
Cc1ccc(-c2nnc3c4ccccc4c(C)nn23)cc1 | 3%
CCC(=O)NC(=S)Nc1ccc(NC(=S)NC(=O)c2sc3ccccc3c2Cl)cc1 | i
CCOC(=O)c1ccc(NC(=O)c2ccc(-c3cccc(Cl)c3Cl)o2)cc1 | i
CCN(CC)c1ccc(NC(=O)c2ccc([N+](=O)[O-])c(C)c2)cc1 | i
O=C(NCc1ccco1)C1CCC(N2C(=O)C3C4CCC(C4)C3C2=O)CC1 (stereo not drawn) | i
CCc1cc(C(=O)O)c(N)c([N+](=O)[O-])c1 | 3%
CCOc1ccc(S(=O)(=O)Nc2ccc(S(=O)(=O)N3CCCC3)cc2)cc1 | i
COC(=O)CSc1nc(C23CC4CC(CC(C4)C2)C3)cc(C(F)(F)F)c1C#N | 1%
Cc1c(Br)cc(C(=O)Nc2ccc(Cl)cc2)c(C)c1C | 22%
COc1ccc(-c2cc(-c3cccs3)c(C#N)c(SCC(C)=O)n2)cc1 | i
O=C(COc1ccccc1)n1nc(NCc2cccs2)nc1NCc1cccs1 | 2%
Cc1ccccc1OCCn1cc(C(=S)N2CCOCC2)c2ccccc21 | i
Cc1cc(NC(=O)c2ccc3c(c2)OCO3)no1 | i
O=C(COc1ccc(S(=O)(=O)NCc2ccccc2)cc1)Nc1ccc(Cl)c(C(F)(F)F)c1 | 1%
O=C(Nc1nc(-c2ccccc2)cs1)c1cccc(S(=O)(=O)N2CCCC2)c1 | 13%
CS(=O)(=O)N(Cc1ccccc1)c1ccc(C(=O)Nc2cccc([N+](=O)[O-])c2)cc1 | i
COc1ccc(N2CCN(C(=O)c3ccc(C)o3)CC2)cc1 | i
COC(=O)c1ccc(C)c(NC(=O)c2ccc(CN(c3ccccc3)S(C)(=O)=O)cc2)c1 | i
Cc1ccc(CNCC2CCCO2)s1 (stereo not drawn) | 0%
O=S(=O)(c1ccc(NC(=S)Nc2ccc3c(c2)OCCO3)cc1)N1CCOCC1 | i
Cc1cccc(OCC(=O)NCc2cccc(CNC(=O)COc3cccc(C)c3)c2)c1 | i
C=CCN(CC=C)CCOc1cccc2ccccc12 | i
Cc1c(C)c2cc(Cl)c(OCC(=O)c3ccc(Cl)c(Cl)c3)cc2oc1=O | i
O=C(c1ccco1)N1CCN(C2CC(=O)N(c3ccc(C(F)(F)F)cc3)C2=O)CC1 (stereo not drawn) | i
Cc1sc(NC(=S)NC(=O)C2CCCCC2)c(C(N)=O)c1C | i
